Screening data from PubChem.
NS1 inh – influenza NS1 inhibition; Potency, µM (series often up to 46.1 µM), without a hit: at the top dose activity, positive = more growth; 0.4% of 270,000 active; AID 2326; S. cerevisiae slowed by influenza A NS1, growth recovery by OD600; further: actives are rising curves; nearly all actives have a fitted effect of over 50% in size
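Recovery from NS1-induced slow growth read by OD600 in budding yeast switched to galactose assay medium (pH 6.0, -URA) at 1:100 dilution. Compound 23 nl per well; the matching strain lacking NS1 serves as control.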
Cruzain inh noDet – blocks cruzain activity in detergent-free assay | P25779 | purified cruzain, Z-FR-AMC fluorescence, no detergent | Potency, µM, without a hit: max response, negative = inhibition, actives largely listed as inhibitors | 2.3% of 200,000 active; active means well fitted curve in the direction sought with a large enough effect; inconclusive means small, poorly fitted or top-dose-only effect, or another doubt; inactive means no such curve, though single readings can be large; an effect the other way counts as inactive or inconclusive;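 further: plate controls were enzyme without inhibitor for no effect and buffer without enzyme for full effect; nearly all actives have a fitted effect of over 40% in size; top concentration of the series not given in the record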
Target sequence (P25779 123-467 limits assumed): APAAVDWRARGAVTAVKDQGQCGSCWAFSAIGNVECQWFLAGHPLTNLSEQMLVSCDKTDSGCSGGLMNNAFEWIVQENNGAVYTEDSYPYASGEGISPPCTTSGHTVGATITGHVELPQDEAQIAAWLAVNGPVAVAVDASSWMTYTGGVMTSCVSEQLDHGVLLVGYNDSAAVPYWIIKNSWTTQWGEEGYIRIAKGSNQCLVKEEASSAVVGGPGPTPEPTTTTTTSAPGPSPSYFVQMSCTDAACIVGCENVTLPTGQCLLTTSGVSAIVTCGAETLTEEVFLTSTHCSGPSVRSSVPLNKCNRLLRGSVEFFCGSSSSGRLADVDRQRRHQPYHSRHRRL
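Detergent-free condition (0.00005% Triton X-100) in acetate buffer pH 5.5 with DTT. 1.5 nM enzyme and compound were pre-mixed 15 min, then 2 uM Z-FR-AMC substrate added; reaction progress from fluorescence change between first and third reads (60 s).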
Cruzain Triton – cruzain (T. cruzi) inhibition with detergent; 0.43% of 200,000 active; purified cruzain, Z-FR-AMC fluorescence, 0.01% Triton; Potency, µM, inactives show max response, negative = inhibition, hits mostly inhibitors; active means well fitted curve in the direction sought with a large enough effect; inconclusive means small, poorly fitted or top-dose-only effect, or another doubt; inactive means no such curve, though single readings can be large; an effect the other way counts as inactive or inconclusive;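 further: plate controls were neutral wells for no effect and buffer without enzyme for full effect; nearly all actives have a fitted effect of over 40% in size; top concentration of the series not given in the record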
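Sodium acetate buffer (100 mM, pH 5.5) containing 5 mM DTT and 0.01% Triton X-100 hosted 1.5 nM cruzain and test compound for 15 min at room temperature. Cleavage of 2 uM Z-FR-AMC was then tracked by fluorescence.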
MARV entry inh – blocks Marburg virus binding to or entry into cells. Marburg virus pseudotyped entry inhibition, cell reporter; control for the full effect not named in the record; about a third of the inactives were read at about 46 µM. Potency, µM (highest dose often 37.8 µM), without a hit: top-dose activity change, negative = inhibition, usual class: inhibitors. 1.8% of 300,000 active; active = well fitted inhibition curve with a large enough effect; inconclusive = small, poorly fitted or top-dose-only effect, or effect the other way; inactive = flat fitted curve, though single readings scatter; tested in HEK293 cells; about a fifth of its hits are not listed in these tables; further: on the % scale 0 is the no-effect control and ±100 the full control effect; luciferase read-out
RE007 growth inh – less growth of the S. pombe RE007 Vpr strain; S. pombe RE007 Vpr strain, BacTiter-Glo ATP luminescence, 24 h; control for the full effect not named in the record; Potency, µM (top dose mostly 92.2 µM), for the others: at the top dose activity change, negative = less growth; 0.21% of 360,000 active; active = well fitted falling curve with a large enough effect; inconclusive = small, poorly fitted or top-dose-only effect; inactive = no such curve, though single readings can be large or run the other way;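 further: on the % scale 0 is the no-effect control and ±100 the full control effect; nearly all actives have a fitted effect of over 50% in size; the assay follows cell death caused by Vpr and the record does not say whether a fall means rescue or toxicity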
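Fission yeast RE007 carrying one integrated HIV-1 vpr copy, seeded at OD 0.01 in PMG+AL medium with 23 nL pinned compound. Grown 24 h at 30 degrees; viability read by BacTiter-Glo luminescence after 5 min.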
StopGo reporter – FMDV 2A StopGo reporter, luciferase signal; human cells with a luciferase reporter of 2A StopGo recoding; control for the full effect not named in the record; Potency, µM (titrated, usually from 57.9 µM), for the others: top-dose signal change, negative = less light; 1.2% of 410,000 active; AID 1159524; active = well fitted falling curve with a large enough effect; inconclusive = small, poorly fitted or top-dose-only effect; inactive = no such curve, though single readings can be large or run the other way; tested in HEK293T cells; further: on the % scale 0 is the no-effect control and ±100 the full control effect; nearly all actives have a fitted effect of over 45% in size; luciferase light after 4 h
SARS PLP yeast – blocks SARS-CoV papain-like protease in a yeast assay | 0.19% of 330,000 active | Potency, µM (series often up to 32.9 µM), inactives show top-dose activity, positive = growth rescue | S. cerevisiae expressing SARS-CoV PLpro, growth rescue; control for the full effect not named in the record; further: 0% is about no effect; nearly all actives have a fitted effect of over 55% in size; growth read by luminescence after 48 h
LASV entry inh – inhibitors of Lassa virus binding or cell entry; Potency, µM (doses to about 37.9 µM), without a hit: at the top dose activity change, negative = inhibition, actives largely listed as inhibitors; Lassa virus pseudotype entry inhibition, cell reporter; control for the full effect not named in the record; 1.2% of 300,000 active; AID 540256; active means well fitted inhibition curve with a large enough effect; inconclusive means small, poorly fitted or top-dose-only effect, or effect the other way; inactive means flat fitted curve, though single readings scatter; tested in HEK293 cells; further: on the % scale 0 is the no-effect control and ±100 the full control effect; nearly all actives have a fitted effect of over 50% in size; luciferase read-out
Starred values were filed as active, the others as inactive; ? = inconclusive; nt = not tested or not shown; & = joins results of further samples; [ ] = dose if it differs, or a comment. Unless noted, the call rests on the fitted dose curve; in most records, active means well fitted rising curve with a large enough effect; inconclusive means small, poorly fitted or top-dose-only effect; inactive means no such curve, though single readings can be large or run the other way. Potency means the concentration at half of the fitted maximal effect. No enrichment for hits, and some 4.8% of all compounds hit somewhere here.

SMILES	NS1 inh	Cruzain inh noDet	Cruzain Triton	MARV entry inh	RE007 growth inh	StopGo reporter	SARS PLP yeast	LASV entry inh
Cc1cccc(CN2CCN(Cc3cccc(-n4cccn4)c3)CC2CCO)n1 (stereo not given)	-2%	nt	nt	9%[46.1 µM]	-11%	-14%	-2%	12%[46.1 µM]
Cc1ccc(-c2nc3c(c(=O)c4ccccc4n3C)c(=O)n2-c2ccccc2)cc1	21%	4%	0.6%	2%	-7%	0%	5%	-5%
CC(=O)c1cccc(NC(=S)NC(=O)C(C)C)c1	-4%	-4%	0.2%	21%	2%	nt	1%	13%
CC1=C(C(=O)N2CCCC(C(=O)c3cccc4ccccc34)C2)OCCO1 (stereo not given)	-3%	nt	nt	nt	-4%	-24%	-3%	nt
Cc1ccc(N(CC(=O)NCc2cccs2)S(=O)(=O)c2cccs2)cc1	-11%	-10%	-3.3%	-27%[46.1 µM]	0%	19%	12%	?
O=C(CCCl)N1CCCC2(CCCCC2)C1	1%	nt	nt	nt	-13%	-11%	0%	nt
C=CCN(CC=C)CC(=O)Nc1ccc(S(N)(=O)=O)cc1	8%	-8%	0.6%	-1%	14%	-18%	-5%	?
CN1CCN(c2cc(N3CCCC3)c([N+](=O)[O-])cc2F)CC1	-2%	1%	-3.4%	11%[46.1 µM]	-15%	-7%	0%	3%
COC(=O)c1cc(NC(=O)CCc2c(C)nc3c(c(C)nn3C(C)(C)C)c2C)cc(C(=O)OC)c1	nt	1%	1.0%	-8%[46.1 µM]	nt	-20%	nt	21%[46.1 µM]
COc1ccc(N(CC(=O)N2CCN(c3ccc(Cl)cc3)CC2)S(=O)(=O)c2c(C)noc2C)cc1	18%	nt	nt	nt	1%	?	2%	nt
COCCCNC(=O)C1CCN(C(=O)Nc2ccc(Cl)cc2)CC1	2%	-11%	2.5%	16%	-1%[3.69 µM]	-17%	7%	13%
COc1ccc(/C=N/NC(=O)c2nc(-c3ccccc3)cc(-c3ccccc3)n2)cc1OC	15%	1%	-6.9%	?	-9%	-19%	-16%	?
O=C(OCc1ccc(Cl)c(Cl)c1)c1ccccn1	-78%	8%	-0.3%	-12%	-13%	35%[activator]	-13%	?
CCOc1ccccc1-c1cc(-c2ccccc2)nc2c1c(=O)n(C)c(=O)n2C	-3%	30%	-1.5%	?	-2%	-20%	5%	-3%
CCCCCNc1nc2ccccc2nc1NS(=O)(=O)c1cccs1	-5%	2%	-14%	-2%	-4%	-3%	-1%	-6%
CCOC(=O)c1c(/N=C/C2C(=O)CC(C)(C)CC2=O)sc2c1CCCC2	-2%	nt	nt	1%[46.1 µM]	-12%	-19%	1%	2%[46.1 µM]
COc1ccc(NC2c3ccccc3C(=O)N2Cc2ccco2)cc1OC (stereo not given)	13%	-14%	0.5%	nt	-4%	0%	-3%	nt
CC1CCN(S(=O)(=O)c2ccc(C(=O)NCc3ccco3)cc2)CC1	-1%	nt	nt	14%&14%[46.1 µM]	3%	3%	-1%	-14%
O=C(CSc1nnc(Cc2ccccc2)n1Cc1ccco1)NC1CCCC1	-5%	4%	2.5%	-2%	5%	24%	-4%	-2%
COC(=O)c1sccc1-c1ccc(/C=N/OC(=O)c2cccs2)o1	-6%	nt	nt	-2%[46.1 µM]	2%	35%[activator]	0%	-4%
Cc1noc(C)c1COc1ccc(C(=O)OCC(=O)Nc2ccc(C(=O)N(C)C)cc2)cc1	nt	nt	nt	-14%	0%	?	-4%	?
COc1ccc(S(=O)(=O)N2CCCC2CNC(=O)C(=O)NCCc2ccccc2)cc1 (stereo not given)	nt	nt	nt	?	-13%	-11%	0%	-29%[46.1 µM]
COc1ccc(OCC(=O)NNC(=O)Cn2c(=O)cnc3ccccc32)cc1	nt	nt	nt	?	-9%	-9%	-2%	1%
CC(C)Sc1nc2c(c(=O)[nH]c(=O)n2C)n1CCc1ccccc1	-6%	-6%	2.6%	-2%	-2%	-24%	2%	?
CC#CCN1c2ccccc2[C@]23C[C@@H](C(=O)OC)N(C(C)=O)C2=NC(C(=O)OC)=C(C(=O)OC)[C@H]13	-9%	nt	nt	nt	3%	-26%	-2%	nt
CCOc1ccc(N(CC(=O)NC(C)C)C(=O)CCC(=O)Nc2ccccn2)cc1	15%	nt	nt	nt	-2%	-3%	7%	nt
C=C(C)COc1ccc2c(C)c(CC(=O)N3C[C@H]4C[C@@H](C3)c3cccc(=O)n3C4)c(=O)oc2c1	9%	nt	nt	nt	14%	-18%	-4%	nt
Cc1ccc(N=C(NO)c2nonc2N)c(C)c1	-21%	-4%	-0.4%	-30%	-10%	38%[activator]	-6%	6%
Cc1ccsc1/C=N/NC(=O)CN1CCN(Cc2ccccc2)CC1	-1%	nt	nt	0%[46.1 µM]	-1%	8%	0%	15%[46.1 µM]
OC(COCc1ccccc1)CN1CCN(Cc2ccc3c(c2)OCO3)CC1 (stereo not given)	-2%	nt	nt	14%[46.1 µM]	7%	-13%	-5%	4%
COc1cccc(/C=N/N2CCN(c3ccncc3S(=O)(=O)N3CCCCC3)CC2)c1	1%	?	-5.2%	1%	2%	0%	-7%	-1%
O=C(CN(Cc1ccccc1)C(=O)CCC(=O)Nc1nccs1)NCc1ccco1	-2%	12%	0.3%	0%&-5%	-3%	2%	-8%	-1%
O=C(C1CC1)N1CCC(C(O)(c2ccccc2)c2ccccc2)CC1	-9%	-4%	3.1%	5%	-9%	-5%	-19%	0%
Cc1ccc(Cl)cc1NC(=O)CCCn1c(=O)c2cccn2c2cccnc21	nt	2%	0.0%	nt	nt	-9%	nt	6%[46.1 µM]
COc1ccc(N(Cc2cc3ccc(C)cc3[nH]c2=O)S(=O)(=O)c2ccccc2)cc1	4%	nt	nt	nt	11%	-20%	0%	nt
Cc1ccc(OCCN(C)C(=O)C2CCC(=O)N(CCCN3CCCC3=O)C2)cc1 (stereo not given)	6%	nt	nt	-11%[46.1 µM]	0%	0%	-2%	0%[46.1 µM]
COC(=O)c1scc(S(=O)(=O)c2ccccc2)c1N	nt	nt	nt	24%[46.1 µM]	8%	-20%	2%	-14%[46.1 µM]
Cn1c(=NC(=O)CSCC(=O)N2CCCC2)sc2ccccc21	-7%	-1%	-0.3%	9%	-22%	-19%	nt	-2%
CCCc1c(C(=O)Nc2ccc(C(F)(F)F)cc2)cnn1-c1ccccc1	2%	nt	nt	nt	-12%	?	-2%	nt
COc1cccc(C2N(c3ccccn3)C(=O)C3CCCN32)c1OC (stereo not given)	-5%	6%	4.6%	12%	14%	14%	-7%	10%
CC1=CC2=NC(=O)CC(C)(C(=O)N(CC(=O)NC3CCCC3)Cc3ccc(Cl)cc3)N2C=C1 (stereo not given)	-4%	nt	nt	1%[46.1 µM]	-9%	0%	1%	18%
O=C(Nc1ccc(F)cc1)c1cccnc1N1CCOCC1	-7%	9%	0.0%	-7%	8%	-6%	-19%	10%
Cc1nn(C)c(C)c1-c1c(C#N)c(N)nc2c1CCCCCC2	5%	4%	-2.1%	?	4%	1%	-2%	-24%
Cc1nn(CCC#N)c(NC(=O)c2ccc(Cl)cc2Cl)c1P(=O)(Nc1ccc([N+](=O)[O-])cc1)N1CCOCC1 (stereo not given)	-10%	-3%	-1.6%	?	-7%	0%	2%	4%
O=C1C=C(NCc2ccccc2)c2ccccc2C1=O	-66%	nt	nt	?	?	-16%	-4%	?
CCc1cc2c(=O)c(-c3cnn(-c4ccccc4)c3)c(C)oc2cc1OCC(=O)Nc1cccc(C)c1	10%	?	-1.8%	?	15%	-9%	-2%	-1%
O=C(CC(Sc1ccccc1)c1cccs1)c1ccco1 (stereo not given)	-16%	12%	-2.3%	-4%	?	nt	-2%	-3%
CCOC(=O)Cn1nc(-c2ccccc2)c2cnc3ccc(C)cc3c21	-2%	-3%	-3.1%	13%	-18%	?	27%	2%
COc1ccc(N/C(N)=N/c2nc(CSc3ccc(Cl)cc3)cc(=O)[nH]2)cc1	11%	-18%	-5.5%	-20%	7%	nt	-4%	-29%
CCN1CCN(c2ccc(NC(=O)c3ccc([N+](=O)[O-])o3)cc2Cl)CC1	nt	nt	nt	?	3%	44%[activator]	13%	?
O=C(c1ccco1)N1CCN(C(=O)c2cc(-c3ccncc3)nc3ccc(Br)cc23)CC1	-64%	nt	nt	?	-25%	-29%	nt	-14%
O=S1(=O)N[C@@H](Cc2ccccc2)COc2cc(Br)ccc21	nt	nt	nt	0%	13%	-9%	2%	9%[46.1 µM]
CCc1cccc(-n2c(=O)c3cccnc3n2CC(=O)Nc2c(C)cc(C)cc2C)c1	nt	-1%	-0.4%	nt	nt	-20%	nt	27%[46.1 µM]
Cc1ccccc1C(OCC(O)CN1CCN(CCO)CC1)c1ccccc1 (stereo not given)	2%	nt	nt	-4%	5%	0%	-5%	nt
NC(=O)CC(NC(=O)c1ccc(Br)cc1)c1ccc(N2CCN(c3ccccc3)CC2)c([N+](=O)[O-])c1 (stereo not given)	30%	nt	nt	nt	2%	-21%	8%	nt
CCCn1c(=O)c(C(=O)Nc2ncccc2C)c(O)c2ccccc21	-55%	nt	nt	5%[46.1 µM]	?	11%	-4%	6%
Cc1cc(C)n(CC(=O)NNC(=O)c2cncc(Br)c2)n1	nt	nt	nt	8%	1%	-4%	0%	2%
COCCN(C(=O)CSc1nc2ccccc2c(=O)n1C(C)COC)c1c(N)n(Cc2ccccc2)c(=O)[nH]c1=O (stereo not given)	nt	nt	nt	1%[46.1 µM]	-6%	-2%	-1%	0%
COc1ccc(C2C3=C(CCCC3=O)N(CC(=O)O)C3=C2C(=O)CCC3)cc1Cl	19%	nt	nt	10%[46.1 µM]	-13%	-9%	8%	-3%[46.1 µM]
CC(=O)c1c(C)[nH]c(C(=O)NCCc2cccc(C)c2)c1C	-18%	0%	0.5%	-29%	-15%	3%	-10%	-25%
